BJeLR viability: kills HRASV12-expressing BJeLR cells. BJeLR (HRASV12) viability, CellTiter-Glo ATP luminescence, 48 h; reference of the scale not given here. inhibition, % (test concentration not listed). actives 0.17% (n = 300,000). AID 1554;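 active = replicate mean above 50%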;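 note: 50 nL library stock added to about 25 µL; numbers are from one replicate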
PrP UTR inh: inhibition of PrP 5' UTR reporter expression | cell-based PrP 5' UTR mRNA reporter, plate reader | AID 488862 | inhibition, % (no concentration beside the values) | actives 0.35% (n = 340,000);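 active = every replicate at 50% or more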;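 note: 0 = median of the neutral control wells; tested in H4 reporter cells; numbers are from one replicate; inactives centre near -14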
Bead autofluor: compound fluorescence in toxin protease inhibitor counterscreen; actives 3.1% (n = 360,000); AID 624483; compound autofluorescence counterscreen, microsphere flow cytometry; hits give high values; fluorescence intensity (test concentration not listed);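 active = at least 3 SD above the mean of all compounds, about 16000 in these data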;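 note: 100 nL of 1 mM stock went into each well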
Sa RN4220 lethal: kills Staphylococcus aureus RN4220; S. aureus RN4220 growth, OD600, 16 h; inhibition, % (test concentration not listed); actives 0.33% (n = 330,000); AID 1259311;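 active = z-score of -3 or lower and OD600 up to 0.18 on both plates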;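 note: plate controls were untreated cells for no effect and reference antibiotic for full effect; stock transfer was 100 nL into about 80 µL; one replicate is shown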
Mtb hypoxia inh: Mtb hypoxia fluorescent reporter inhibition | M. tuberculosis hypoxia-regulated fluorescent reporter, fluorescence | AID 1159583 | fluorescence inhibition, % (no concentration beside the values) | actives 0.1% (n = 300,000);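 active = 35 to 45% if threefold the growth effect, above 45% if 1.5-fold the growth effect; inactive = the rest, general growth blockers included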;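 note: wells of about 50 µL received 100 nL stock; 0% = vehicle wells and 100% = reference inhibitor wells; whole bacteria with a GFP reporter of the hypoxia response; strong numbers were not always called active; many hits fall short of the cut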
Sa ugtP lethal: compounds lethal to S. aureus RN4220 ugtP deletion mutant; OD600 growth, 16 h; some inactives read as strong as hits; growth inhibition, % (concentration not given with the values); actives 0.54% (n = 330,000);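 active = z-score under -3 and OD600 up to 0.15 on both plates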;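 note: plate controls were untreated wells for no effect and antibiotic for full effect; wells of about 80 µL received 100 nL stock; the first replicate is given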
Mtb hypoxia inh growth: further read-out of Mtb hypoxia inh, marked with its call; growth inhibition, %; measured here: M. tuberculosis growth (absorbance);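 0% = vehicle and 100% = reference antibiotic; read after six days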
* hit, by the source's call; nt = not tested or not shown; & = joins results of further samples. An unsorted share of the library, and some 4% of all compounds hit somewhere here.

Values in the order – BJeLR viability	Mtb hypoxia inh growth	Mtb hypoxia inh	Sa RN4220 lethal	Sa ugtP lethal	Bead autofluor	PrP UTR inh
O=C(Cc1ccc2c(c1)OCCO2)N1CCN(S(=O)(=O)c2cccc(Cl)c2Cl)CC1
    -5	2	-4	-1.2	12	2074	-23
COc1ccccc1NC(=O)O/N=C(\N)c1ccccc1
    8	4	11	7.6	0	4080	-15
COc1ccccc1NC(=O)c1ccccc1NC(=O)c1cc(Cl)ccc1NC(=O)c1ccco1
    11	6	-4	3.4	-3	21221*	-23
O=C(CCN1C(=O)c2ccccc2C1=O)Nc1ccc(-c2cn3ccsc3n2)cc1
    -4	0	13	7.6	-7	4123	0
COc1ccc(CC(=O)NCc2nnc(SCC(=O)Nc3cccc(F)c3)n2C)cc1
    -17	3	-13	10	-3	3365	-20
CCCCN(C(=O)c1ccc(S(=O)(=O)N(C)C)cc1)c1ccccc1
    4	1	17	3.9	4	4452	-13
COc1ccc(CNc2ccc(N3CCN(C(C)=O)CC3)cc2)cc1OC
    nt	4	2	4.8	9	5199	-9
NS(=O)(=O)c1ccc(CCNC(=O)c2ccc(OCC3CCCO3)cc2)cc1 (configuration not stated)
    3	3	14	2.4	-3	4557	-5
Cn1cncc1C#Cc1ccc2cc(C3(O)CCCCC3)oc(=O)c2c1
    nt	0	3	25	12	3290	-16
Cc1ccc(CN2CCN(CC(=O)O)C2=O)cc1
    -1	4	4	4.1	-2	4459	-20
COc1ccccc1CC1C(=NO)C2CCN1CC2 (configuration not stated)
    nt	7	10	1.1	6	nt	nt
C=CCN(CC(=O)NC1CCCC1)C(=O)C(=O)Nc1ccc2c(c1)OCCO2
    1	4	18	2.2	4	6323	-13
O=C1CC2(CCCCC2)Oc2ccc(F)cc21
    1	4	13	7.8	18	3965	-18
COc1ccc(CNC(=O)c2cccc(S(=O)(=O)N3CCN(c4ccc(F)cc4)CC3)c2)cc1
    nt	1	-8	-1.5	2	6418	-13
Cc1ccc(OCc2cc(C(=O)Nc3ccccc3)oc2C)cc1
    -2	nt	nt	7.1	19	3251	-17

Carrying on.
Values in the order – BJeLR viability	Mtb hypoxia inh growth	Mtb hypoxia inh	Sa RN4220 lethal	Sa ugtP lethal	Bead autofluor	PrP UTR inh
COc1ccccc1OCc1cc(C(=O)N2CC3C[C@@H]4CC2C[C@H](C3)C4)no1
    10	4	6	5.7	1	5052	-62
COc1ccccc1C(=O)NN=C(C)CC(=O)Nc1ccccn1
    nt	-7	-5	0.8	-6	nt	nt
CN1C(=O)N(C)C2(CC1(C)C)CC(C)(C)N(C)C(=O)N2C
    -2	nt	nt	0.8	-3	3169	-25
CCN(C=NC1=NN(c2cccc(C(F)(F)F)c2)CC1)CC
    5	2	7	4.4	0	1974	-143
Cc1ccc(-n2nc(-c3cccs3)cc2C(=O)NCC2CCCO2)c(C)c1 (configuration not stated)
    -8	nt	nt	4.3	15	3314	-10
CC(=O)N1CCOc2ccc(S(=O)(=O)N3CCC(C(=O)Nc4ccc(C)cc4C)CC3)cc21
    6	3	-7	-1.9	1	5379	-17
Cn1cccc1-c1cc(C(=O)NN=CC=Cc2ccccc2)[nH]n1
    nt	17	-1	17	42	nt	nt
CCCCN(C(=O)Nc1ccc(Cl)cc1)C1CCN(C(C)=O)CC1
    2	4	-2	-0.9	3	17864*	-6
Cc1ccc(NC(=O)CN(C)C(=O)CCOc2ccccc2C)cc1
    1	2	4	3.5	8	2490	2
O=C(N/N=C/c1ccc(OC(=O)c2ccccc2)c([N+](=O)[O-])c1)c1ccc(O)cc1
    12	nt	nt	nt	nt	2085	11
NS(=O)(=O)c1ccc(CCNC(=O)CCc2ccccc2)cc1
    -4	5	11	4.4	4	4047	nt
Cc1ccc2[nH]c(-c3ccccc3)c(CN3CCCC3)c(=O)c2c1
    -10	-5	-3	4.4	15	6286	-3
COc1cc(C2c3cc4c(cc3C(O)C3COCC23)OCO4)cc(OC)c1OC (configuration not stated)
    nt	10	17	7.9	5	2842	1
CCOc1ccccc1NC(=O)NC1Cc2ccccc2C1
    4	2	11	1.1	2	3230	-5
O=C(CSc1nc2ccccc2o1)NN=Cc1ccccc1C(=O)O
    nt	2	4	12	0	nt	nt

(more compounds)
Values in the order – BJeLR viability	Mtb hypoxia inh growth	Mtb hypoxia inh	Sa RN4220 lethal	Sa ugtP lethal	Bead autofluor	PrP UTR inh
O=C(COc1ccc(Cl)cc1)Nc1ccccc1CO
    -1	nt	nt	2.3	-2	2292	-19
CSc1nc(C)c(C(=O)C[n+]2ccccc2)cc1C#N
    3	1	-1	1.9	9	3560	-16
CCN(CC)C(=O)OCCc1cc2ccccc2c(=O)o1
    nt	9	9	3.3	5	4103	-15
CC(O)Cn1c(N2CCCC2)nc2c1c(=O)n(C)c(=O)n2C (configuration not stated)
    -10	-4	1	3.1	1	4029	-17
COc1ccc(CNc2n[nH]c(NCc3ccc(OC)c(OC)c3)n2)cc1OC
    2	nt	nt	-2.6	-6	5569	-22
CC(C)n1cnc2c(Nc3cccc(Cl)c3)nc(NCCCO)nc21
    -15	-6	-4	12	5	3610	10
COc1cc2[nH]c(=O)n(CCC(=O)N3CC=C(c4ccccc4)CC3)c(=O)c2cc1OC
    -3	8	9	4.4	2	9836	-7
COc1ccccc1C(=O)NC(CCSC)C(=O)NC1CC1 (configuration not stated)
    nt	2	15	7.5	6	3999	-34
Fc1ccc(NN=Cc2ccncc2)c(F)c1
    nt	2	3	4.1	0	nt	nt
N/C(CSc1nc(-c2ccccc2)c(-c2ccccc2)o1)=N\O
    -5	nt	nt	nt	nt	2881	-20
CCCCCCCCOC(=O)C[N+](C)(C)C/C=C(/C)Cl
    11	0	3	1.8	6	2613	-15
CCC(=O)N(c1ccc(C(=O)O)cc1)c1nc(-c2ccc(OC)cc2)c(C)s1
    3	9	3	8.0	11	4299	-5
CC(C)(CO)Nc1nc(Cl)nc(NC2CCCCC2)n1
    -3	-16	4	1.2	-18	6094	-23
Cc1c(-c2ccc(F)cc2)[n+](=O)c2c(n1[O-])CCCCC2
    -7	nt	nt	2.9	7	2033	-14
COc1ccc(S(=O)(=O)N2CCCCC2)cc1NC(=S)Nc1cccc(Cl)c1C
    2	4	5	-0.4	1	8017	-25

Carrying on:
Values in the order – BJeLR viability	Mtb hypoxia inh growth	Mtb hypoxia inh	Sa RN4220 lethal	Sa ugtP lethal	Bead autofluor	PrP UTR inh
CC1CCC(C(C)C)C(OC(=O)CSc2nnc(N)s2)C1 (configuration not stated)
    -8	nt	nt	7.9	-6	2935	-15
ONC(=Nc1cccc(C(F)(F)F)c1)c1cccnc1
    -9	-4	5	1.4	10	4187	-15
COc1ccc(/C=C\c2cc(OC)c(OC)cc2CC[N+](C)(C)C)cc1OC
    5	5	-5	7.6	7	4322	-17&-24
CCOC(=O)COc1ccc(S(=O)(=O)N2CCN(c3ccccc3)CC2)cc1
    2	-1	9	0.2	7	1986	-16
Cc1nn(C(C)C(=O)c2cccc(Cl)c2)c(C)c1[N+](=O)[O-] (configuration not stated)
    -4	10	7	4.3	10	2147	-3
CCC(CC)NC(=O)c1ccc(NS(=O)(=O)c2ccc3[nH]c(=O)[nH]c3c2)cc1
    1	4	-1	-1.5	1	6071	-16
CCNC(=O)CC1C(=O)N(c2ccc(F)cc2)C(=O)N1Cc1ccc(OC)cc1 (configuration not stated)
    7	1	-4	3.6	-1	15863	-14
O=C1C2C3C=CC(CC3)C2C(=O)N1N=Cc1c(O)ccc2ccccc12 (configuration not stated)
    nt	12	13	2.3	3	nt	nt
O=C(NCN1C(=O)C2C3C=CC(C3)C2C1=O)Nc1nncs1 (configuration not stated)
    8	nt	nt	5.0	-3	2412	0
CCOC(=O)N1CCN(S(=O)(=O)c2ccc(OC)c(C(=O)N3CCCCC3)c2)CC1
    -7	2	7	2.2	5	5981	-23
O=C(Nc1ccccc1C(=O)Nc1ccccc1)c1ccccc1Br
    -2	17	2	1.3	12	4545	-13
CCOC(=O)N1CCN(c2nc(C)c3c(n2)CC(C)CC3=O)CC1 (configuration not stated)
    nt	4	3	5.8	-2	23668*	-18
CN(CCO)c1cc(Sc2nc3ccccc3s2)c2nonc2c1[N+](=O)[O-]
    40	19	19	57	88*	21417*	-8
CC1CN(C(C)CO)C(=O)c2cccc(NC(=O)Nc3ccc(C(F)(F)F)cc3)c2OC1CN(C)S(=O)(=O)c1cn(C)cn1 (configuration not stated)
    nt	7	10	2.0	-11	nt	nt
COc1ccc(NC(=O)CN2C(=O)COc3ccc(S(=O)(=O)N4CCCCC4)cc32)c(OC)c1
    -16	-8	-1	1.5	5	4292	2

Other results follow:
Values in the order – BJeLR viability	Mtb hypoxia inh growth	Mtb hypoxia inh	Sa RN4220 lethal	Sa ugtP lethal	Bead autofluor	PrP UTR inh
Cc1ccccc1-n1nnnc1SC1CCOC1=O (configuration not stated)
    2	nt	nt	1.8	4	4657	-8
COc1cccc(OCCNC(=O)c2cccc(OC)c2)c1
    1	9	4	-4.8	-2	3275	-15
COc1ccc(C2=NN(C(=O)CSc3nc4ncc(Cl)cc4[nH]3)C(c3ccco3)C2)cc1 (configuration not stated)
    -20	16	13	9.8	1	4447	-26
COc1ccc(NC(=O)CSc2nnc(C)c(=O)n2N)cc1
    -7	2	2	3.1	16	nt	-20
COCCNC(=O)c1ccc2c(c1)ncn2-c1ccc(F)c(F)c1
    -3	nt	nt	2.7	1	2645	-22
CN(CC(=O)Nc1ccccc1Br)C(=O)c1ccccc1OCc1ccc(F)cc1
    nt	-6	4	12	4	3072	-16
O=C(Cn1cc2c(n1)CCCC2)NCc1cccnc1
    -7	nt	nt	1.1	9	5444	-11
O=c1c2ccccc2nc(Cc2ccccc2)n1-c1ccccc1
    2	5	8	4.5	5	3761	-14
COc1cccc(NC(=O)N2CCCc3ccccc32)c1
    -1	-16	3	8.2	5	2444	-9
O=C(N/N=C/c1ccccn1)C(O)c1ccccc1 (configuration not stated)
    1	nt	nt	nt	nt	3664	-17
COc1ccc(CCNC(=O)CN2C(=O)c3ccccc3S2(=O)=O)cc1
    -7	nt	nt	1.8	1	2369	-25
O=C(CN1C(=O)NC2(CCCC2)C1=O)N1CCN(S(=O)(=O)c2ccc(Cl)cc2)CC1
    3	4	8	-3.4	14	5066	-13
O=C(O)CCC(=NNC(=O)CNC(=O)C(c1ccccc1)c1ccccc1)c1ccccc1
    nt	16	4	0.7	11	nt	nt
Cc1ccc(C)c(S(=O)(=O)N2CCN(C(=O)/C=C/c3ccco3)CC2)c1
    nt	9	5	0.6	-1	nt	1
CC(=O)C(=Cc1cn(-c2ccccc2)nc1-c1ccccc1)C(C)=O
    nt	2	4	1.2	10	2159	-14

The list continues.
Values in the order – BJeLR viability	Mtb hypoxia inh growth	Mtb hypoxia inh	Sa RN4220 lethal	Sa ugtP lethal	Bead autofluor	PrP UTR inh
COc1ccc2nc(SC(C(=O)c3ccccc3)c3ccccc3)nc(C)c2c1 (configuration not stated)
    -6	2	4	2.8	1	2094	1
COc1ccc(CCN2CC(C(=O)NCCc3ccccc3)CC2=O)cc1OC (configuration not stated)
    3	-3	7	0.7	9	4514	-39
COc1ccc([N+](=O)[O-])cc1NC(=O)c1ccccc1SC
    -4	0	17	3.4	-71	3130	2
Cc1nc2c(-c3ccccc3)c(C)nn2c(SCC(N)=O)c1Cc1ccccc1
    0	-7	-4	-0.7	54	3253	nt
COc1ccc(S(=O)(=O)Cc2ccc(C(=O)NCc3ccc(C)cc3)o2)cc1
    1	-7	0	0.2	1	5766	-8
COc1cc(OC)cc(C(=O)N2CCN(S(C)(=O)=O)CC2)c1
    -3	-3	-5	-2.7	-4	4175	-11
ON=Cc1cc2ccccc2n1Cc1ccccc1F
    nt	1	1	1.8	8	nt	nt
CC1CCN(CC(=O)Nc2ccc(Br)cc2[N+](=O)[O-])CC1
    -1	2	14	1.9	2	3239	-4
Cc1ccc(N=Nc2c(N)nn(-c3ccccc3)c2N)cc1
    17	8	9	10	-11	2526	-105
CCC(=O)Nc1nc(-c2ccccc2)nc(SC)c1C(C)=O
    3	7	6	3.0	7	3179	-21
Cc1ccc(S(=O)(=O)NC(=O)N(C)C2CCCCC2)cc1
    0	0	8	1.6	8	nt	nt

A second format for part of the listing above:
SMILES	BJeLR viability	Mtb hypoxia inh growth	Mtb hypoxia inh	Sa RN4220 lethal	Sa ugtP lethal	Bead autofluor	PrP UTR inh
COc1cc(C2c3cc4c(cc3C(O)C3COCC23)OCO4)cc(OC)c1OC (configuration not stated)	nt	10	17	7.9	5	2842	1
Cc1ccc(CN2CCN(CC(=O)O)C2=O)cc1	-1	4	4	4.1	-2	4459	-20
O=C(N/N=C/c1ccc(OC(=O)c2ccccc2)c([N+](=O)[O-])c1)c1ccc(O)cc1	12	nt	nt	nt	nt	2085	11

Source: PubChem (several laboratories)
